From PubChem
gsp antagonist: gsp mutant antagonism. gsp-mutant cells, cAMP HTRF, 30 min; control for the full effect not named in the record. Potency, µM (top dose mostly 76.9 µM), for inactives: at the highest dose activity change, negative = inhibition, hits mostly inhibitors. 340,000 compounds, 0.4% hits; active = falling curve of any shape with a large fitted effect; inconclusive = falling curve, mostly with a smaller effect; inactive = flat or rising curve; cell line not stated here;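 note: intracellular cAMP measured with PDE inhibitor Ro 20-1724 present during compound exposure; potency is the fitted concentration of half-maximal effect; % is set by controls: 0 for no effect and ±100 for the full control effect; nearly all actives have a fitted effect of over 65% in size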
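Cells, 2000/well, grown 16–24 h in DMEM 10% FBS with 0.5 mg/ml G418, then compounds plus […] (300 uM addition stock), 30 min at 37C. cAMP read by HTRF (cAMP-d2 and anti-cAMP antibody-K in lysis buffer) after 30 min RT.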
gsp ag: gsp mutant agonism | gsp mutant cells, cAMP HTRF, 30 min; control for the full effect not named in the record | Potency, µM (doses to about 76.9 µM), for the others: at the top dose activation (cAMP increase), most hits filed as activators | 340,000 compounds, 0.13% hits; active = well fitted activation curve with a large enough effect; inconclusive = small, poorly fitted or top-dose-only effect, or another doubt; inactive = no such curve, though single readings can be large or run the other way; cell line not stated here;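 note: phosphodiesterase inhibitor Ro 20-1724 added with compounds to block cAMP breakdown; potency is the fitted concentration of half-maximal effect; nearly all actives have a fitted effect of over 60% in size; about a fifth of the inactives were tested at one dose only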
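Cells in DMEM/10% FBS with G418 were pretreated with compounds in DMSO plus […] (300 uM stock) for 30 min at 37C. cAMP was measured by HTRF (cAMP-d2 plus anti-cAMP antibody-K) after 30 min at room temperature.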
ClpP mod: qHTS Assay for Activators of ClpP. purified B. subtilis ClpP, FRET peptide cleavage, 20 min. Potency, µM (titrated, usually from 57.5 µM), for inactives: top-dose activity change, negative = active. ATP-dependent Clp protease proteolytic subunit (Bacillus subtilis (strain 168)), P80244. AID 651965, 2013. 340,000 compounds, 1.9% hits; active = well fitted falling curve with a large enough effect; inconclusive = small, poorly fitted or top-dose-only effect; inactive = no such curve, though single readings can be large or run the other way; note: potency is the fitted concentration of half-maximal effect; the source files actives as falling curves though it sought activators and does not explain the sign; nearly all actives have a fitted effect of over 65% in size; many hits overshoot -100%
Target sequence (P80244 whole entry, looked up): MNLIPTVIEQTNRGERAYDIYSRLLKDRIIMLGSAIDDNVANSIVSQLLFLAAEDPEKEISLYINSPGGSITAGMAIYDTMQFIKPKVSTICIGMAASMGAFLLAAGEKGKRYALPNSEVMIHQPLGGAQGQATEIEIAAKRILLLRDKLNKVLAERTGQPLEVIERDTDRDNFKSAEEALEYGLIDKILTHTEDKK
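Purified B. subtilis ClpP, 10 microg/mL final in Tris/HCl pH8 with KCl, BSA, glycerol and Tween-20, cleaved an Abz/nitrotyrosine-quenched decapeptide. Fluorescence (ex 320, em 430) was read at 0 and 20 min at room temperature. Delta was normalized to 5.8 microM ADEP and DMSO/no-enzyme controls.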
Sfp PPTase inh: blocks B. subtilis Sfp PPTase activity; Potency, µM, without a hit: max response, negative = inhibition, usual class: inhibitors; Biochemical Sfp PPTase activity, qHTS; AID 1490; 310,000 compounds, 3.5% hits; active = well fitted inhibition curve with a large enough effect; inconclusive = small, poorly fitted or top-dose-only effect, or another doubt; inactive = no such curve, though single readings can be large or run the other way;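 note: the enzyme is Sfp with the accession as filed and its product quenches rhodamine fluorescence; potency is the fitted concentration of half-maximal effect; 0% = enzyme reaction without inhibitor and -100% = no enzyme wells; top concentration of the series not given in the record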
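Fluorescence-quenching assay with 15 nM Sfp, 5 uM rhodamine-CoA and 12.5 uM BHQ-2-labelled ybbR peptide in pH 7.6 Hepes/MgCl2 buffer. Enzyme was pre-incubated with compound for 15 min at room temperature. Rate was taken from the 30-min fluorescence change (525/598 nm).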
Menin MLL FP FL: inhibitors of human menin-MLL interaction, wild-type MLL peptide. Fluorescence polarization, fluorescein-MLL peptide displacement from menin. FP activity change, % at 61.4 µM. 290,000 tested, under 10 active. AID 1766; inconclusive = falling polarisation curve, or a change in total fluorescence; inactive = total fluorescence flat and polarisation flat or rising; no compound was filed as active; the % refers to the polarisation; negative = inhibition;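 note: % of control where 0% means no effect; inhibitors lower the polarisation; unlabelled MLL peptide was the positive control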
D2 PAM: potentiates the human D2 dopamine receptor allosterically; 360,000 compounds, 0.23% hits; AID 624464; DiscoveRx D2 beta-arrestin cells, luminescence, 90 min; 100% = 57 uM dopamine signal; potentiation, % (test concentration not listed); active = potentiation of 50% or more; inconclusive = 30% to 50%; inactive = 30% or less;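 note: compound concentration not given in the record; tested on top of an EC20 dose of dopamine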
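PathHunter D2 cells, attached overnight at 37 deg C, received compound in DMSO plus dopamine at EC20 (50 nM final) for 90 min at 37 deg C. Beta-arrestin recruitment was read as luminescence after 1 h with detection reagent at ambient temperature.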
TRPV1 potentiator: potentiators of human vanilloid receptor 1 (TRPV1); TRPV1-expressing cells, Fluo-8 calcium influx, capsaicin EC20 potentiation; host cell line not named in the record; control for the full effect not named in the record; Q8NER1; 320,000 compounds, 0.02% hits; potentiation, % at 8.33 µM; active means potentiation above 80%; inconclusive means 30% to 80%; inactive means below 30%; note: 0% is about no effect
Target sequence (Q8NER1 whole entry, looked up): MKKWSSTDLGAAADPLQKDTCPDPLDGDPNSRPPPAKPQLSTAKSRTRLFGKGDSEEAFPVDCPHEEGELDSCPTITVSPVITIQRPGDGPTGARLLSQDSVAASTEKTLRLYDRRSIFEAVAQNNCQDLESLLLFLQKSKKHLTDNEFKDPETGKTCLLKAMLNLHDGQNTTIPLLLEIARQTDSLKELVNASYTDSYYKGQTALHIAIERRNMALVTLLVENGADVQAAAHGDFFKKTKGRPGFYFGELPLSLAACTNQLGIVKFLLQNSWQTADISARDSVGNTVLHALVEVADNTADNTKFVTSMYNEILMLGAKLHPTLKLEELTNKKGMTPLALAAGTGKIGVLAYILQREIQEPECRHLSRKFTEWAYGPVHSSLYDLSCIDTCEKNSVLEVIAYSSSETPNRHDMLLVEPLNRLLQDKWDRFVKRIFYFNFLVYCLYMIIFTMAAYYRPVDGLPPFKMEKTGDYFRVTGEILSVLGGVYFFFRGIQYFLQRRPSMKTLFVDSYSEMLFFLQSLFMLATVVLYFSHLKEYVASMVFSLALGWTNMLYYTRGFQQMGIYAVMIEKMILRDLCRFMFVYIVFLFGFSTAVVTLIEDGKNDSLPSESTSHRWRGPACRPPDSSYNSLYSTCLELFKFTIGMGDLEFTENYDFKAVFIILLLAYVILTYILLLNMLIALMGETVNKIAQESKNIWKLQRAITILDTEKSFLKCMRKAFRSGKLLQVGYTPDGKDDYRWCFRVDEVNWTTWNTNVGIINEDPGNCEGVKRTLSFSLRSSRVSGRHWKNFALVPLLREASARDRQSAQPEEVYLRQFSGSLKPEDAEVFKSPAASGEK
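TRPV1-expressing cells were cultured overnight at 35.5C and loaded with Fluo-8 calcium dye for 40 to 90 min at room temperature. After a 10 s baseline, compound was added and calcium influx was read kinetically for 3 min (ex 480/em 520 nm).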
Starred values were filed as active, the others as inactive; ? = inconclusive; . = not tested or not shown; [ ] = dose if it differs, or a comment.

SMILES	gsp antagonist	gsp ag	ClpP mod	Sfp PPTase inh	Menin MLL FP FL	D2 PAM	TRPV1 potentiator
Cc1nn(CC(=O)Nc2ccc(N(C)C)cc2)c(C)c1[N+](=O)[O-]	2.6%	-21.6%	-6.5%	?	-9.3	-18.3	-0.6
Cc1cc(C)c2cc(CN(Cc3cccnc3)C(=O)c3ccc(F)cc3)c(Cl)nc2c1	0.0%	6.5%	?	-15.9%	7.6	-6.9	-5.6
COc1cc(C(=O)N2CCC(NC(=O)C(Cc3ccc(C(C)C)cc3)NC(C)=O)CC2)cc(OC)c1OC (stereo not given)	1.1%	20.1%	2.9%	5.3%	5.1	-19.9	5.7
Cc1ccc(S(=O)(=O)CC(=O)c2ccc(C)c([N+](=O)[O-])c2)cc1	-3.9%	?	-1.5%	-2.7%	-0.4	-8.1	16.4
COc1ccc(C2Nc3ccccc3C(=O)N2NS(=O)(=O)c2ccccc2)c(OC)c1 (stereo not given)	-6.1%	4.0%[15.4 µM]	-2.9%	-1.2%	0.0	-7.9	20.0
COc1ccc(C2=NOC(C(=O)NCc3ccc(F)cc3)C2)cc1 (stereo not given)	1.6%	-117.2%[inhibitor]	-2.3%	9.7%	-0.3	-0.8	-4.2
O=C(c1ccccc1)C(O)(Cc1ccccc1)c1ccccc1 (stereo not given)	-18.2%	-3.7%[15.4 µM]	0.0%	.	.	-2.2	.
C#Cc1cccc(C(=O)NC2CCCN(C3Cc4ccccc4C3)C2)c1 (stereo not given)	2.3%	-3.2%	-0.1%	7.0%	2.3	-18.7	-0.5
COc1ccc(NC(=O)Nc2ccc(Br)c(C)c2)cc1	.	-7.0%[15.4 µM]	.	10.0%	2.7	-18.4	11.3
COc1ccc(NS(=O)(=O)c2cc(C(=O)OC(C)C(=O)N3CCOCC3)ccc2Cl)cc1 (stereo not given)	-27.2%	-52.8%[inhibitor]	0.9%	.	.	-31.4	-28.6
CCOCCCNC(=S)N1CCCN(c2nc3cc(C)ccc3cc2C#N)CC1	-6.0%	?	-3.9%	9.1%	2.3	-7.3	-13.6
COc1ccc(NC(=O)COC(=O)c2c(C)noc2C)cc1Cl	.	8.4%	1.3%	.	.	-2.6	.
CC(c1ccccc1)N(C)C(=O)CSc1nnc(C2CC2)n1C1CC1 (stereo not given)	13.6%	26.1%	-1.6%	.	.	-0.5	6.0
COc1cc(OC)cc(C(=O)Nc2ccc(CN3CCCCC3)cc2)c1	11.2%	-6.2%[15.4 µM]	0.4%	21.7%	-6.1	-23.2	4.2
CCC(=O)c1ccccc1OCCCN1CCC(Cc2ccccc2)CC1	10.3%	15.8%	.	?	-9.0	-11.3	-6.3
O=C(O)c1c(Cl)c(Cl)c(Cl)c(Cl)c1C(=O)N1CCCC1	-3.3%	15.2%	-1.0%	15.5%	0.3	5.4	4.4
CCN1C(=O)[C@H]2[C@H]3CN=C(SCC(=O)c4ccccc4)N3[C@@](C)(C(=O)OC)[C@H]2C1=O	10.0%	.	-0.3%	.	.	-6.6	.
CC(OC(=O)CC1CC2CCC1C2)C(=O)Nc1cccc(S(=O)(=O)N2CCOCC2)c1 (stereo not given)	-4.9%	-45.0%[15.4 µM]	.	.	.	0.2	2.1
Cc1c(N(C(=O)c2ccccn2)C2(C(=O)NC3CCCC3)CCCCC2)c(=O)n(-c2ccccc2)n1C	11.1%	-3.5%[15.4 µM]	.	18.5%	0.2	-1.0	4.6
Cc1ccc(N2CC(C(=O)Nc3ccc(S(=O)(=O)Nc4ncccn4)cc3)CC2=O)cc1C (stereo not given)	2.7%	7.2%[15.4 µM]	.	29.0%	-2.4	-7.1	7.5
CN(C)CCN(Cc1ccc(Cl)cc1)c1ccccn1	8.8%	.	-6.7%	?	-3.7	-22.5	-9.9
O=C(N/N=C/c1cccnc1)c1ccco1	-5.6%	20.5%	.	6.2%	1.1	-4.0	-8.1
NC(=O)c1nsc(C(=O)N(Cc2ccco2)C(C(=O)NCc2ccccc2)c2ccc(O)cc2)c1N (stereo not given)	11.2µM*	7.4%	.	10.9%	-8.9	15.5	12.7
CCOC(=O)C1CCN(S(=O)(=O)c2c(C)n(C)c(=O)n(C)c2=O)CC1	10.8%	-42.6%[inhibitor]	-3.4%	28.2%	-1.9	-5.8	2.8
CCOC(=O)c1c(C)[nH]c(N=Nc2cccc(OC)c2)c1C	-2.4%	4.2%[15.4 µM]	.	?	0.2	-15.0	1.5
The listing continues.
SMILES	gsp antagonist	gsp ag	ClpP mod	Sfp PPTase inh	Menin MLL FP FL	D2 PAM	TRPV1 potentiator
COc1cc(OC)cc(C(=O)N(Cc2ccco2)c2c(N)n(Cc3ccccc3)c(=O)[nH]c2=O)c1	4.5%	-33.7%	-4.7%	.	.	-2.5	.
Cc1ccc(Cn2c(S(=O)(=O)O)nc3ccccc32)cc1	-2.5%	4.2%	-3.4%	2.7%	-2.6	28.8	4.2
COc1ccc(NC(=O)c2ccc3snnc3c2)cc1	-0.9%	-5.9%	20.3%	-4.8%	0.8	-18.8	10.1
CC(C)[C@H](NC(=O)c1ccccc1Cl)C(=O)OCC(=O)NCc1ccc2c(c1)OCO2	-3.5%	-6.2%	0.8%	.	.	11.6	.
CCc1ccc(NC(=O)CCC(=O)c2ccccc2)cc1	35.5µM*	-4.5%	0.0%	3.1%	-1.8	-1.7	?
COc1ccc(C(C#N)=Cc2ccc(N(C)CCC#N)cc2)cc1	.	-13.4%	-1.8%	.	.	-10.1	.
Cc1ccc(OCC(=O)Nc2c3c(nn2C(C)(C)C)CS(=O)(=O)C3)cc1	5.3%	27.8%[15.4 µM]	-3.4%	9.1%	.	-2.3	5.8
S=C(c1ccc(-c2ccccc2)cc1)N1CCOCC1	-7.0%	-55.3%[inhibitor]	.	-16.7%	1.9	-0.5	-19.6
Cc1ccc(S(=O)(=O)N2CCC(C(=O)NN3CCCCC3)CC2)cc1	7.8%	4.3%	-2.2%	.	.	-16.3	1.4
Cn1cccc1Cc1nnc(SCC(=O)NCc2ccccc2Cl)n1-c1ccc(F)cc1	-9.1%	-40.3%[inhibitor]	8.4%	3.8%	3.0	-4.7	.
COc1ccc(/C(O)=C2/C(=O)C(=O)N(c3ccccn3)C2c2ccc(OC)cc2)cc1 (stereo not given)	-0.4%	?	-2.2%	15.8%	-2.7	-7.6	-6.3
COCCNC(=S)N(CCO)Cc1cc2cc3c(cc2[nH]c1=O)OCO3	12.2%	10.2%[15.4 µM]	?	1.1%	-0.7	-7.9	6.0
COc1c(Cl)cc(-c2noc(C)c2C(=O)NCCc2ccc(C)cc2)cc1Cl	-23.5%	-28.3%	0.6%	24.3%	-0.5	-5.1	?
CCOc1ccc2c(c1)c1nnc(SCC3CCCO3)nc1n2C (stereo not given)	-9.0%	-1.2%	-0.8%	24.5%	-1.3	-2.0	16.6
Cc1ccccc1NS(=O)(=O)c1cc2c(cc1C)NC(=O)CO2	6.0%	10.7%	1.0%	3.1%	-5.2	-0.1	-14.6
Cc1cc(C)cc(N(CC(=O)NCc2ccco2)C(=O)c2snc(C(N)=O)c2N)c1	-12.3%	-63.2%[inhibitor]	-13.1%	-1.8%	-0.1	3.8	-23.5
C/C(CCc1ccccc1)=N\NC(=O)c1ccc(CN2CCOCC2)cc1	5.6%	-28.4%	.	10.9%	-0.6	-5.4	2.7
O=C(c1ccccc1)N1N=C(c2ccccc2)CC1c1cccs1 (stereo not given)	-28.4%	?	.	-12.1%	9.6	1.9	-7.7
CC(=O)N1CC(C)Sc2ccc(S(=O)(=O)NC3CCCCC3C)cc21 (stereo not given)	-3.1%	-51.2%[inhibitor]	0.4%	12.4%	5.5	-1.4	-6.0
COCCN(C(=O)CSc1nnc2cc(C)c3ccccc3n12)c1c(N)n(Cc2ccccc2)c(=O)[nH]c1=O	9.2%	-42.8%[inhibitor]	-6.5%	7.4%	5.5	5.2	14.1
Cn1ccnc1SCC(=O)Nc1cc(F)ccc1F	3.6%	24.0%	0.7%	9.8%	0.9	9.3	4.0
Cc1cccc(NC(=O)CN2C(=O)COc3ccc(Cl)cc32)c1	10.2%	-56.6%[inhibitor]	-1.8%	13.1%	1.3	-11.9	-12.6
CSc1cccc(NC(C)C(=O)NCc2ccccc2)c1 (stereo not given)	-7.9%	-20.2%[15.4 µM]	.	-9.8%	-1.2	-3.2	11.0
CCOc1ccc(-c2cc(NC(=O)Cn3ncc4c3-c3ccccc3OC4)on2)cc1OCC	-7.3%	10.9%	0.5%	?	-2.4	1.0	-0.5
O=C(Nc1nnc(Cc2ccc([N+](=O)[O-])cc2)s1)Nc1ccccc1F	0.8%	14.8%	-1.2%	-21.9%	6.5	-1.5	6.9
Next entries.
SMILES	gsp antagonist	gsp ag	ClpP mod	Sfp PPTase inh	Menin MLL FP FL	D2 PAM	TRPV1 potentiator
Cc1ccc(C)c(C(=O)CSc2nnnn2-c2cccnc2)c1	-2.9%	3.8%	1.0%	-11.7%	-1.4	-4.0	6.8
COc1ccc(CCNC(=O)c2cccc3c2C(=O)N(C2CCCCC2)C3)cc1OC	-23.5%	-20.6%	0.1%	-3.5%	.	3.8	-9.7
Cc1cccc(NC(=S)NC(=O)c2ccco2)c1C	-3.2%	5.3%	-0.8%	-2.7%	.	-5.7	-1.2
CC(=O)Nc1ccc(NC(=O)CSc2nnc3ccc(-c4ccc(F)cc4)nn23)cc1	9.6%	11.2%[15.4 µM]	.	12.3%	-6.1	-0.5	10.4
Cc1ccc2nc(Cc3ccc(N)cc3)oc2c1	13.6%	3.3%	0.0%	-0.5%	4.4	6.1	-30.0
O=C(Cc1cccs1)Nc1cccc(C(=O)Nc2ccc(C(=O)O)cc2)c1	4.2%	1.3%[15.4 µM]	.	18.6%	-3.5	-4.5	-3.5
CCCCn1cnc2c(SCc3ccc(Cl)cc3)nc(N)nc21	13.1%	-0.5%	.	.	.	-1.0	.
COCc1cc(O)c(O)c(O)c1-c1c(COC)cc(O)c(O)c1O	.	.	-1.8%	7.94µM*	?	.	.
CC(=O)N/C(=C\c1cccs1)C(=O)O	10.3%	-3.4%[15.4 µM]	.	10.2%	-1.6	-1.9	12.4
